Screens from PubChem.
GIV Gai3 FP: inhibitors of GIV peptide binding to Galpha-i3, primary screen, biochemical, fluorescence polarization, FITC-GIV GBA peptide, rat Galphai3; 90 min; stronger effect = lower value; scaled: aluminum fluoride 0%, vehicle 100%; percent of control (FP), % (concentration not given with the values); 210,000 compounds, 0.42% hits; AID 1224905, 2016;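 active = replicate mean at 85% of control or lower, very high polarization wells dropped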;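 also: wells of about 15 µL received 100 nL stock; the first replicate is given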
Target sequence (P08753 whole entry, looked up): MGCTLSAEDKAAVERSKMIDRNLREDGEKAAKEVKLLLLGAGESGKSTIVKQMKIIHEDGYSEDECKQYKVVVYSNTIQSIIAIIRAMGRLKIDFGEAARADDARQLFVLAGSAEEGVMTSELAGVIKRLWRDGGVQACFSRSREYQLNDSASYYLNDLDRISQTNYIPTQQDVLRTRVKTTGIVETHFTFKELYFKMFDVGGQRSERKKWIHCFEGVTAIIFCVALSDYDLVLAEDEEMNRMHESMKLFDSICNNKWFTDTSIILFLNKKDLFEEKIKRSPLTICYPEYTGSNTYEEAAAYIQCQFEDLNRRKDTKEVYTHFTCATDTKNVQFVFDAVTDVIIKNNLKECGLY
An asterisk follows results filed as active. Some of the compounds tested; count on the stated rates, not on these rows.

SMILES	GIV Gai3 FP
O=C1CC(C(=O)c2ccc3c(c2)OCO3)c2c(n[nH]c2-c2ccccc2)N1 (configuration not stated)	101
Fc1ccc(C2Oc3ccccc3C3=C2C(c2cccs2)n2ncnc2N3)cc1 (configuration not stated)	100
CN1CCN(c2ncnc3c2c(-c2ccccc2)cn3-c2ccc(Br)cc2)CC1	106
Cc1nnc(NC(=O)CCc2nc(CSc3nc4cc(Cl)ccc4o3)no2)s1	106
COc1ccc(CNC(=O)c2ccc3c(c2)[nH]c(=S)n2c4ccccc4nc32)cc1	117
Cc1[nH]c(-c2nnc(C3CCC3)o2)c(C)c1S(=O)(=O)N1CCCCCC1	104
CN(C)c1ccc(C2N3CC4([N+](=O)[O-])CN2CC([N+](=O)[O-])(C3)C4(C)C)cc1 (configuration not stated)	120
Cc1cc2c(cc1C)N(C(=O)c1ccc(F)cc1)C(C)(C)c1ssc(=S)c1-2	112
CCCCCn1c(SCC(=O)OCC)nc2cc(C(=O)N3CCN(C(=O)OCC)CC3)ccc2c1=O	117
CS(=O)(=O)N1CCCN(C(=O)C2CCC2)CC1	104
O=C(C1CCN(c2nc3ccccc3[nH]2)CC1)N1CCN(c2ccccn2)CC1	102
C=CCc1cccc(C2Nc3cccc4cccc(c34)N2)c1O	111
O=C(CCC(=O)N1CCc2ccccc21)Nc1noc2ccccc12	96
O=C(Nc1ccc(F)cc1F)NC1CCN(c2ccc(F)cc2)C1=O (configuration not stated)	99
CCCC(=O)Nc1cccc(OCc2cc(=O)n3ccccc3n2)c1	106
Cc1ccnc(Nc2nc(-c3ccc4c(c3)OCO4)cs2)c1	96
COc1cc(OC)c(NC(=O)c2sc3nc(C)nc(N4CCN(C)CC4)c3c2C)cc1Cl	112
CC1CCN(S(=O)(=O)c2ccc3nn(CC(=O)OC(C)C)c(=O)n3c2)CC1	103
CCOC(=O)C1=CN(Cc2ccc(OC)cc2)C=C(C(=O)OCC)C1c1ccc(OC)c(OC)c1	107
O=S(=O)(c1cc(-c2nnc(C3CCCC3)o2)co1)N1CCN(C2CCCCC2)CC1	104
COc1ccc(CNC(=O)c2cnn3c(C(F)(F)F)cc(-c4ccc(OC)c(OC)c4)nc23)cc1	115
O=S(=O)(CCc1noc(C2COc3ccccc3O2)n1)c1ccccc1 (configuration not stated)	101
COc1ccc(C2=C(Nc3ccc4oc5ccccc5c4c3)c3ccccc3C2=O)cc1	110
O=C(Cn1c(=O)c(=O)n(Cc2ccncc2)c2ncccc21)NCc1ccc2c(c1)OCO2	99
CN(C)C(=O)c1ccc2c(c1)nc(CN1CCN(C(=O)c3ccc4c(c3)OCO4)CC1)n2C	103
COc1ccc(CCn2c(=S)[nH]c3cc(C(=O)NCc4cccnc4)ccc3c2=O)cc1OC	113
CC(C)CCNC(=O)C1CCCN(c2ncnc3c2oc2ccccc23)C1 (configuration not stated)	106
O=C(CCN1CCN2CCCC2C1)N1c2ccccc2Sc2ccc(Cl)cc21 (configuration not stated)	129
COc1ccc(NC2=NC(C)(C)Cc3cc(OC)c(OC)cc32)cc1	114
Cc1ccc(NC(=O)CCc2nc(CSc3nc(-c4ccccc4)cs3)no2)cc1Cl	100

Laid out differently: entries from further up.
O=S(=O)(CCc1noc(C2COc3ccccc3O2)n1)c1ccccc1 (configuration not stated)
  GIV Gai3 FP: 101
COc1ccc(C2=C(Nc3ccc4oc5ccccc5c4c3)c3ccccc3C2=O)cc1
  GIV Gai3 FP: 110
O=C(Cn1c(=O)c(=O)n(Cc2ccncc2)c2ncccc21)NCc1ccc2c(c1)OCO2
  GIV Gai3 FP: 99

Next section
SMILES	GIV Gai3 FP
Cc1ccccc1N1CC(O)(c2ccc(F)cc2)[N+]2=C1CCCC2 (configuration not stated)	105
CCOc1ccc2c(c1)-c1c(ssc1=S)C(C)(C)N2C(=O)c1cccc2ccccc12	114
COCc1nnc(-c2ccc3c(c2)OCO3)o1	98
Cc1ccc(S(=O)(=O)c2cnc(N3CCN(c4ccccc4F)CC3)nc2N)cc1C	103
CCOc1ccc(CN2C(=O)c3ccccc3CC2(C)C(=O)NCc2cccc(OC)c2)cc1 (configuration not stated)	102
COc1ccc(C2C(C#N)=C(N)OC3=C2C(=O)CC(c2ccccc2)C3)cc1OC (configuration not stated)	102
O=C(Cn1ccc2c(SCc3ccccc3)nccc21)Nc1ccccc1	102
CCOc1ccc(NC(=O)C(=O)NCCN2CCN(C(=O)c3ccc(OC)cc3)CC2)cc1	105
CC(=O)Nc1cc(-c2nc(-c3cccc(-c4csc(C)n4)c3)no2)ccc1C	99
O=C(NCc1ccco1)/C(=C\c1cccc(Br)c1)NC(=O)c1ccccc1	103
COc1cccc(C2=N/C(=C\c3ccccc3OC)C(=O)N2c2ccc(C)cc2Br)c1	114
O=C(Nc1ccccc1)c1ccc(=O)n(Cc2ccccc2)c1	100
O=C1C=C(c2cccs2)C[C@H](c2cccs2)[C@H]1n1cnc([N+](=O)[O-])n1	100
O=c1c2cc3c(cc2nc(SCc2nc(-c4ccccc4)no2)n1C1CCCC1)OCO3	103
CCOC(=O)c1ccc(Nc2ncnc3c2cnn3-c2ccc(OC)cc2)cc1	118
COc1ccc(C2CC(=O)Nc3c2ccc2ccccc32)cc1OC (configuration not stated)	106
Cc1ccc2nc(-c3ccc(F)cc3)c(-c3ccc(F)cc3)nc2c1	106
CCOc1ccc(OCC)c(S(=O)(=O)N2CCN(c3nc(C)cc(N4CCN(C)CC4)n3)CC2)c1	103
COc1ccccc1Oc1cc(-c2cccc(C(=O)NCc3ccc4c(c3)OCO4)c2)ncn1	104
O=C(Cn1ncc2c(N3CCCCC3)ncnc21)NCCC1=CCCCC1	102
CCOC(=O)C1=C(CSc2nc(CC)c(C)cc2C#N)OC(N)=C(C#N)C1c1cccs1 (configuration not stated)	106
Cc1cc(N2CCCC2)nc2ccc(NC(=O)CC3CCCCC3)cc12	109
O=[N+]([O-])c1cc(S(=O)(=O)NCc2ccco2)cc2c1-c1c(cc(S(=O)(=O)NCc3ccco3)cc1[N+](=O)[O-])C2=NO	105
CCOC(=O)c1c(CN2CCN(c3ccccc3C)CC2)n(-c2ccccc2)c2cc(Br)c(OC)cc12	110
CC(C)CNC(=O)c1ccc(N2CC3CC(C2)c2cccc(=O)n2C3)c(NS(=O)(=O)c2ccc(Br)cc2)c1 (configuration not stated)	108
Cc1cc(C)c2c(c1)Cc1cc3ccccc3nc1-2	108
CCSc1nnc(-c2nn(C)c3c2CN(S(=O)(=O)c2cc(F)ccc2C)CC3)n1CC	109
COc1cc2c(cc1OC)C1(CCCC1)CN=C2c1cccc([N+](=O)[O-])c1	113
COC(=O)C1=C(C)NC(SCC(=O)Nc2ccc(C)cc2C)=C(C#N)C1c1ccccc1Cl (configuration not stated)	103
O=C(NC1CCCCC1)C1CCCN(c2ncc(-c3ccccc3)cn2)C1 (configuration not stated)	102

By substructure: the compounds so far containing a thiophene ring, fused or not
SMILES	GIV Gai3 FP
Fc1ccc(C2Oc3ccccc3C3=C2C(c2cccs2)n2ncnc2N3)cc1 (configuration not stated)	100
COc1cc(OC)c(NC(=O)c2sc3nc(C)nc(N4CCN(C)CC4)c3c2C)cc1Cl	112
O=C1C=C(c2cccs2)C[C@H](c2cccs2)[C@H]1n1cnc([N+](=O)[O-])n1	100
CCOC(=O)C1=C(CSc2nc(CC)c(C)cc2C#N)OC(N)=C(C#N)C1c1cccs1 (configuration not stated)	106

Continuation:
SMILES	GIV Gai3 FP
CCc1ccc(-n2[nH]c(C)c(C(c3ccccc3O)c3c(C)[nH]n(-c4ccc(CC)cc4)c3=O)c2=O)cc1	108
CCCn1c(CCc2ccc(NS(=O)(=O)c3c(C)noc3C)cc2)nc2ccccc21	104
CCn1c(SCC(=O)O)nc2ccccc21	97
Cc1cc(-n2c(C)nc3ccccc3c2=O)ccc1NC(=O)c1cc(Cl)ccc1F	107
CCOc1ccc(N2C(=O)C3C4c5ccccc5C(C=Nc5cccc(C)c5)(c5ccccc54)C3C2=O)cc1 (configuration not stated)	110
CCOC(=O)C1CCN(C(=O)c2sc3ncn(CC(=O)Nc4cccc(C(F)(F)F)c4)c(=O)c3c2C)CC1	112
COc1ccc(Br)cc1/C=c1/sc2n(c1=O)C(N)=C(C#N)C(c1cc(Br)ccc1OC)C=2C#N (configuration not stated)	113
CN(C)S(=O)(=O)c1ccc(-c2nnc(C(=O)NCc3cc(F)cc(F)c3)o2)cc1	103
O=S(=O)(c1ccc(F)cc1)N1CCC(c2noc(-c3ccccc3)n2)CC1	103
COc1cccc(Cn2nc3c(S(=O)(=O)N4CCOCC4)cccn3c2=O)c1	102
CCOC(=O)N1CCN(C(=O)CCN2C(=O)/C(=C/c3ccc(OC)c(OC)c3)SC2=S)CC1	99
COc1ccc(NC(=O)N2CCN(c3nc4ccccc4n4cccc34)CC2)cc1	100
CCOc1ccc2c(c1)-c1c(ssc1=S)C(C)(C)N2C(=O)CSc1ncn(C)n1	101
CCOC(=O)C1=C(C(=O)OCC)SC2(S1)C(C(=O)OCC)=C(C(=O)OCC)SC1=C2c2ccc(C)cc2NC1(C)C	109
CC1=C(C(=O)OCC(C)C)C2(O)C(=O)c3ccccc3C2(O)N1 (configuration not stated)	113
Cc1ccc(S(=O)(=O)n2c(SCC(=O)NCc3ccccc3)nc3ccccc32)cc1	107
COc1ccc(C2C3=C(Nc4ncnn42)c2ccccc2OC3c2ccc(N(C)C)cc2)cc1 (configuration not stated)	106
CCOC(=O)C1CCCN(c2ncc(S(=O)(=O)c3ccc(C)c(C)c3)c(N)n2)C1 (configuration not stated)	105
COc1cccc(-c2nc(NC(C)=O)c3c(=O)oc4ccccc4c3n2)c1	111
CC1=C(C(=O)OCC2CCCO2)C(c2cccc([N+](=O)[O-])c2)C2=C(CC(c3cccs3)CC2=O)N1 (configuration not stated)	105
Cc1cccc(CN=C2Nc3ccccc3NC23CCCCCC3)c1	104
N#Cc1c(N)nc(SCC(=O)c2ccc(O)c(O)c2)c(C#N)c1-c1cccc(Cl)c1	110
COc1ccc(NC(=O)c2sc3nc(C)cc(C(F)(F)F)c3c2N)cc1	125
Cc1c(N=Cc2cccc3ccccc23)c(=O)n(-c2ccccc2)n1C	109
CCC(C)NC(=O)N1CCCN(C2=NS(=O)(=O)C(c3ccc(Cl)cc3)=C2C)CC1 (configuration not stated)	102
CCOC(=O)c1sc(=S)n(-c2ccc(F)c(Cl)c2)c1N	98
O=C1C2C3c4ccccc4C(c4ccccc43)C2C(=O)N1c1ccccc1F (configuration not stated)	111
O=c1c2cn[nH]c2[nH]c(=S)n1-c1ccc(Cl)cc1	103
CN(CCc1noc(-c2ccc(C(=O)N3CCCC3)cc2)n1)C(=O)NC1CCCC1	103
Cc1cc(C2CCCN2C(=O)c2cccs2)on1 (configuration not stated)	104
O=C(Cc1ccccc1)NCCOc1ccc(-c2ccccc2)nn1	103
CC(O)C1(C)CC2C=CC1C2 (configuration not stated)	113
COc1ccc(CCNc2nc(SCC(=O)N3CCC(C)CC3)nc3ccccc23)cc1OC	108
Nc1ccc([N+](=O)[O-])cc1-c1n[nH]c(=S)[nH]c1=O	103
CCOC(=O)c1sc2nc(CC(=O)OC)nc(Nc3cc(Cl)ccc3OC)c2c1C	100
Brc1ccc(Nc2nc(-c3ccc4c(c3)OCO4)cs2)nc1	99
O=C(Cn1cnc2sc3c(c2c1=O)CCCC3)Nc1ccccc1	108
O=C1CCCc2c1cnc1c(C(=O)N3CCC4(CC3)OCCO4)cnn21	102
Cc1csc(NC(=O)C2CCN(c3ccc4cc(S(=O)(=O)N5CCCCC5)ccc4n3)CC2)n1	98
Cc1sc(C)c(S(=O)(=O)N2CCCC2)c1-c1cc(C(F)(F)F)on1	106
COC(=O)C1=C(C(=O)OC)SC2(S1)C(C(=O)OC)=C(C(=O)OC)SC1=C2c2ccccc2N(C(=O)C(C)C)C1(C)C	111
O=C1CC(n2nnn(Cc3ccccc3)c2=S)C2COC1O2 (configuration not stated)	115
COc1ccc(-n2c(=O)c3c(n4c(SC(C)C)nnc24)-c2ccccc2CC32CCCCC2)cc1	112
CCOC(=O)c1c(NC(=O)C(C)Sc2nnc(CNC(=O)COc3ccccc3)n2C)sc2c1CCCC2 (configuration not stated)	106
CCOC(=O)C1=NN(c2ccc(OC)cc2)C2(S1)c1ccccc1C(c1ccc(Cl)cc1)=NN2c1ccccc1 (configuration not stated)	107
CCCCN(C)C(=O)c1ccnc(N2CCC(C)CC2)n1	98
Cc1[nH]n(-c2ccccc2)c(=O)c1C(c1ccccc1OCc1ccccc1)c1c(C)[nH]n(-c2ccccc2)c1=O	107
COCCn1c(SCc2nc(-c3ccccc3C)no2)nc2cc3c(cc2c1=O)OCO3	110
Cc1nn(CC(=O)Nc2sc3c(c2C(=O)OC(C)C)CCCC3)c(C)c1[N+](=O)[O-]	110
Cc1cc(C)cc(NS(=O)(=O)c2c(C)sc(C)c2-c2n[nH]c(C)c2C)c1	102

Remaining list, next part
SMILES	GIV Gai3 FP
COc1ccccc1Oc1cc(-c2cccc(C(=O)NCc3ccccc3C)c2)ncn1	101
CC(C)c1nc(CN2CCC3(CC2)OCCO3)cc(=O)[nH]1	103
COc1ccccc1CNC(=O)c1sc2ncnc(N3CCC(C)CC3)c2c1C	115
COc1cc(NC(=O)Cn2c3ccccc3n3c(=O)cc(-c4cccc(OC)c4)nc23)cc(OC)c1	102
O=C1c2ccccc2-c2ncccc21	106
O=C(CNCc1cccnc1)N1c2ccccc2Sc2ccc(Cl)cc21	108

Some of these compounds in order of the GIV Gai3 FP value, rising.
SMILES	GIV Gai3 FP
COc1ccccc1Oc1cc(-c2cccc(C(=O)NCc3ccccc3C)c2)ncn1	101
COc1cc(NC(=O)Cn2c3ccccc3n3c(=O)cc(-c4cccc(OC)c4)nc23)cc(OC)c1	102
CC(C)c1nc(CN2CCC3(CC2)OCCO3)cc(=O)[nH]1	103
O=C1c2ccccc2-c2ncccc21	106
O=C(CNCc1cccnc1)N1c2ccccc2Sc2ccc(Cl)cc21	108
COc1ccccc1CNC(=O)c1sc2ncnc(N3CCC(C)CC3)c2c1C	115
